Hsc70 ATP site: small molecules displacing fluorescent ligand from Hsc70 – biochemical, fluorescence polarization, primary screen (AID 568); 83,000 tested, under 10 active; displacement, % at 20 µM; hits with a dose series show IC50 in µM; Hsc70 fluorescence polarization, probe displacement; higher % means a stronger effect; strong numbers were not always called active;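 active = displacement above 50% without optical interference and an IC50 on retest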;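 note: ATPase domain with a fluorescein-tagged ATP probe; 0% = vehicle and 100% = excess ADP; read after one hour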
MT1-MMP promoter: MT1-MMP gene expression reporter suppression – cell-based, luciferase reporter, luminescence (AID 618) | calls from a first round at 10 µM; hits with a dose series show EC50 in µM | MT1-MMP promoter luciferase reporter cells, luminescence | 87,000 compounds, 0.62% hits;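 active = over half of the reporter light lost at 10 µM or EC50 under 50 µM; inactive = the rest and hits that failed the dose series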;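 note: actives suppress MT1-MMP promoter-driven transcription so potencies describe inhibitors; HT1080 fibrosarcoma cells; overnight exposure; toxic or luciferase-blocking compounds were not removed from the actives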
WNV protease inh: WNV NS2B-NS3 proteinase inhibition; 65,000 compounds, 0.18% hits; P06935; z-score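 (tested at a level between 10 and 100 µM)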; WNV NS2B-NS3 protease, fluorogenic substrate Ex360/Em465; stronger effect = lower value;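 active = z-score at -3 or under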;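 note: score is relative to mean and spread of the compound wells of a plate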
Target sequence (P06935 1371-1501 limits assumed): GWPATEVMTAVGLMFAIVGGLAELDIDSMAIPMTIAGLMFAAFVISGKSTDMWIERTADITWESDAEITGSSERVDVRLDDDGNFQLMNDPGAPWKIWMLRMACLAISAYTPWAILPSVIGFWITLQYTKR
Target sequence (P06935 1502-1679 limits assumed): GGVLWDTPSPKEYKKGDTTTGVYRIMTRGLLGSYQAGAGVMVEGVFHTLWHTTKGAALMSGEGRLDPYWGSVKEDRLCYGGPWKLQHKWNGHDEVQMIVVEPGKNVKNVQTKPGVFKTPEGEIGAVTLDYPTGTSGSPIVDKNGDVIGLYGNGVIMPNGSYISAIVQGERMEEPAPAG
* = called active by the depositor; i = inactive; / = no result given. These rows are one share of the data (hit frequency here may not be typical).

SMILES | Hsc70 ATP site | MT1-MMP promoter | WNV protease inh
CC(C)SC1=NC(C)(C)C=C(/C=C/c2ccc(Cl)cc2Cl)N1 | 2.6% | i | /
O=C(CN1C(=O)C2C3C=CC(C3)C2C1=O)NCCN1CCCc2ccccc21 (stereo unspecified) | 11% | i | -0.64
COC(=O)CCn1nnc(-c2ccc(C)cc2)n1 | 3.9% | i | -0.27
CC(C)(C)C(=O)Cn1c(NCCCO)nc2ccccc21 | -4.8% | i | 1.8
CC1CCN(S(=O)(=O)c2ccc3c(c2)c(=O)c(C(=O)N2CCCCC2)cn3C)CC1 | 3.1% | i | -0.72
OCCN=c1cc(-c2ccccc2)oc2ccc(Cl)cc12 | -1.1% | i | /
Cc1nc2c3cnn(-c4ccccc4)c3ncn2n1 | 0.2% | i | 0.91
Clc1ccc(-c2nc3nc4ccccc4nc3n2Cc2ccco2)cc1 | -2.7% | i | -1.7
Cc1[nH]n(-c2ccccc2)c(=O)c1C1(C(F)(F)F)C(=O)N(c2ccc(F)cc2)C2=C1C(=O)CC(C)(C)C2 (stereo unspecified) | 0.6% | i | /
CN(Cc1nc2ccccc2c(=O)[nH]1)C(=O)c1ccc(S(=O)(=O)N(C)C)cc1 | -0.7% | i | /
O=C1c2ccccc2CC1Sc1nnc(-c2ccncc2)o1 (stereo unspecified) | -3.8% | i | 0.97
Cc1cc(C(=O)N2CCN(c3cccc(Cl)c3)CC2)c(C)o1 | -0.7% | i | 0.03
COCCOC(=O)C1=C(C)NC(=O)CC1c1cc2c(cc1Br)OCO2 (stereo unspecified) | 1.1% | i | -0.3
CN(C)S(=O)(=O)c1ccc(C(=O)Nc2nc(-c3cccs3)cs2)cc1 | 1.4% | i | 0.42
CC1=Nn2c(nnc2-c2cc(C)[nH]n2)SC1 | -2.0% | i | -0.02
CC1(C)Oc2ccc3ccc(=O)oc3c2/C(=C/Nc2ccccc2)C1=O | -1.5% | i | /
O=C(CCCOc1ccccc1)N1CCCCC1 | 3.5% | 7µM* | /
CCOc1ccc(C(=O)CSc2nnc(C3CC3)n2C)cc1 | -3.4% | i | /
CCCn1nnc(NC(=O)c2cccc(Cl)c2)n1 | -2.4% | i | /
Cc1nnc(NC(=O)CSc2nnc(Cc3ccccc3)n2Cc2ccccc2)s1 | -3.0% | i | -0.42

Retrieved one by one from the entries so far:
SMILES | Hsc70 ATP site | MT1-MMP promoter | WNV protease inh
OCCN=c1cc(-c2ccccc2)oc2ccc(Cl)cc12 | -1.1% | i | /
CC1=Nn2c(nnc2-c2cc(C)[nH]n2)SC1 | -2.0% | i | -0.02
Cc1nnc(NC(=O)CSc2nnc(Cc3ccccc3)n2Cc2ccccc2)s1 | -3.0% | i | -0.42
Clc1ccc(-c2nc3nc4ccccc4nc3n2Cc2ccco2)cc1 | -2.7% | i | -1.7

Some of the entries so far, as comma-separated lines.
Structure,Hsc70 ATP site,MT1-MMP promoter,WNV protease inh
O=C(CCCOc1ccccc1)N1CCCCC1,3.5%,7µM*,/
CCOc1ccc(C(=O)CSc2nnc(C3CC3)n2C)cc1,-3.4%,i,/
CCCn1nnc(NC(=O)c2cccc(Cl)c2)n1,-2.4%,i,/

(more compounds)
SMILES | Hsc70 ATP site | MT1-MMP promoter | WNV protease inh
Cc1cc(C)c(C#N)c(SCC(=O)c2ccc(Cl)cc2Cl)n1 | -25% | i | /
CCCn1c(SCC(=O)Nc2sc(C)c(C)c2C(=O)OCC)nc2c1c(=O)n(C)c(=O)n2C | -4.3% | i | 0.1
O=C(COC(=O)c1cccs1)Nc1ccccc1 | -9.2% | i | -0.37
COc1ccc(-c2c(C)oc3c(CN4CCN(CCO)CC4)c(O)ccc3c2=O)cc1OC | -0.1% | i | -1.5
CCCCCc1c(C)nc(Nc2nc(C)c3cc(OC)ccc3n2)[nH]c1=O | 13% | i | -0.49
N#CC1=C(N)Oc2cc(O)ccc2C1c1cccs1 (stereo unspecified) | -16% | i | 0.09
COc1ccc(OC)c(C2CC(=O)c3c([nH]c(C(=O)OC(C)C)c3C)C2)c1 (stereo unspecified) | -0.3% | i | 0.57
O=C(NC1CCCCCC1)C1CCN(S(=O)(=O)c2ccc(F)cc2)CC1 | -1.0% | i | -0.7
Cc1cc(C)c(C#N)c(SCS(=O)Cc2ccccc2)n1 (stereo unspecified) | 0.3% | i | -0.3
CCc1ccc(S(=O)(=O)N2CC(=O)Nc3ccccc32)cc1 | 4.5% | i | /
CCOC(=O)c1nc2nc(C)cc(=O)n2[nH]1 | -1.4% | i | -0.87
CCn1c(C2CC(=O)N(c3cc(C)cc(C)c3)C2)nc2ccccc21 (stereo unspecified) | -0.3% | i | 0.81
COc1cnc(NS(=O)(=O)c2ccc(N)cc2)nc1 | 5.8% | i | /
Cc1c(/C(O)=C2\C(=O)C(=O)N(CCN(C)C)C2c2cccs2)cnn1-c1ccccc1 (stereo unspecified) | 1.0% | i | 0.12
CCn1cc(C2=NCC(C)O2)c2ccccc21 (stereo unspecified) | 1.5% | i | 0.26
CCCOC(=O)C1=C(C)NC2=C(C(=O)C(C(=O)OC)C(C)C2)C1c1ccc(N(CC)CC)cc1 (stereo unspecified) | 3.5% | i | /
CCOc1cc2[nH]c(=O)n(Cc3cccc(OC)c3)c(=O)c2cc1OCC | 2.7% | i | 0.08
Fc1ccc(Cn2nnnc2C(c2ccc(Cl)cc2)N2CCSCC2)cc1 (stereo unspecified) | -2.4% | i | /
COc1cc(NC(=O)CSc2nnc(Cn3nnc4ccccc43)n2C)cc(OC)c1 | 2.2% | i | /
CCSc1oc(-c2ccccc2)nc1S(=O)(=O)c1ccccc1 | -4.2% | i | -0.73

Some entries already given with just MT1-MMP promoter and Hsc70 ATP site.
canonical_smiles,MT1-MMP promoter,Hsc70 ATP site
Cc1cc(C)c(C#N)c(SCC(=O)c2ccc(Cl)cc2Cl)n1,i,-25%
CCCn1c(SCC(=O)Nc2sc(C)c(C)c2C(=O)OCC)nc2c1c(=O)n(C)c(=O)n2C,i,-4.3%
O=C(COC(=O)c1cccs1)Nc1ccccc1,i,-9.2%

Additional entries:
SMILES | Hsc70 ATP site | MT1-MMP promoter | WNV protease inh
O=C(CSc1nc2cccnc2n1Cc1ccccc1)NCc1ccco1 | -1.2% | i | -1.1
CCN1CCN(C(=O)CN(c2ccccc2C)S(C)(=O)=O)CC1 | -1.6% | i | 0.88
Cc1ccc(N(C=NC#N)CC(=O)N2CCN(c3ccccc3)CC2)cc1 | -2.6% | i | -0.76
CSc1ccc(S(=O)(=O)NCc2ccc(Cl)cc2Cl)cc1 | -1.9% | i | /
CC1=CCC2C(=O)N(c3ccc(Br)cc3C)C(=O)C2C1 (stereo unspecified) | -7.7% | i | -0.15
Cc1ccc(C)c(S(=O)(=O)N2CCN(C(=O)c3cnccn3)CC2)c1 | -4.1% | i | /
CCOC(=O)CN1C(=O)C(C)(C)Oc2ccc(C(=O)Nc3ccccc3)cc21 | 4.4% | i | -0.18
COCCn1c(SCCCC(=O)c2ccc(Br)cc2)nnc1-c1ccncc1 | -7.0% | i | /
COc1cc(OC)c(-c2nn3c(C4CCCCC4)nnc3s2)cc1OC | 1.1% | i | -0.74
O=C(CCSc1nnc(-c2ccco2)o1)Nc1ccc(Cl)cc1 | 1.2% | i | 0.56
CN(c1ccccc1C(=O)N1CCc2ccccc2C1)S(C)(=O)=O | -6.0% | i | 2.5
CC1(C)Cc2c(c(-c3ccccc3)nc3[nH][nH]c(=O)c23)CO1 | 4.1% | i | -0.11
COc1ccc(OC)c(C2=NOC(C(=O)NCCN3CCOCC3)C2)c1 (stereo unspecified) | -4.5% | i | 0.6
Cc1cc(N)n(-c2ncnc3scc(-c4ccccc4)c23)n1 | 0.7% | i | /
COCC(=O)OCC(=O)Nc1cc(C(C)(C)C)nn1-c1ccccc1 | -0.7% | i | /
O=c1n(Cc2ccccc2Cl)c2sc3c(c2c2ncnn12)CCCC3 | -5.4% | i | 1.6
CCOc1ccc(N(CC(=O)O)S(=O)(=O)c2ccc(OC)c(OC)c2)cc1 | 1.8% | i | -0.57
COc1ccc(C(=O)n2nnc3ccccc32)cc1Br | 3.1% | i | -0.23
O=C(CCN1C(=O)C2C3C=CC(C3)C2C1=O)NCCc1ccccc1Cl (stereo unspecified) | -0.7% | i | -0.45
C=CCn1c(Cc2ccc(OC(C)C)c(Cl)c2)nnc1SCC(N)=O | 2.8% | i | 1.7
CCCN(CCC)CC(O)CN(c1ccccc1)S(=O)(=O)c1ccc(C)cc1 (stereo unspecified) | -4.8% | i | /
CCc1c(C)nc2ncnn2c1N1CCC(C(=O)N2CCN(c3ccccc3)CC2)CC1 | -1.1% | i | 0.89
O=C(O)CCN1C(=O)C2CCCCC2C1=O (stereo unspecified) | -0.4% | i | /
O=C(NCc1cccs1)C(Cc1ccccc1)NS(=O)(=O)c1cccs1 (stereo unspecified) | -12% | i | -0.51
CCS(=O)(=O)N1CCCC(C(=O)NC2CCCC2)C1 (stereo unspecified) | -1.5% | i | 0.84
O=S(=O)(Cc1ccccc1)N1CCN(C/C=C/c2ccccc2)CC1 | 1.3% | i | 0.38
c1ccc(N2CCN(C3CCSC3)CC2)cc1 (stereo unspecified) | -8.0% | i | 0.07
Nc1nc(SCC(=O)NCC2CCCO2)n[nH]1 (stereo unspecified) | -3.2% | i | 0.43
CC(=O)c1cn(CC(=O)NCc2cccnc2)c2ccccc12 | 1.6% | i | -0.62
Cc1ccc2c(CC(=O)NC3=NCCS3)coc2c1 | -2.4% | i | 0.9
CC(=O)c1ccc(OCC(O)CN2CCOCC2)cc1 (stereo unspecified) | -6.0% | i | 1.5
COc1cc(NC(=O)c2cccs2)c(OC)cc1NC(=O)CCn1nnc2ccccc21 | -0.6% | i | -0.15
CCOC(=O)C1CCCN(C2CC(=O)N(c3ccc(C)cc3)C2=O)C1 (stereo unspecified) | -8.9% | i | /
CCn1ncc(C2=NOC(C(=O)Nc3cc(OC)c(Cl)cc3OC)C2)c1C (stereo unspecified) | -1.5% | i | -0.0087
COc1cc(-c2nc(-c3ccccn3)no2)cc(OC)c1OC | -5.2% | i | -0.43
COc1ccccc1C(=O)Nc1ccc(S(=O)(=O)Nc2cc(C)on2)cc1 | 0.1% | i | 1.4
C=CCn1c(SCC(=O)Nc2ccccc2OC)nc(O)c(CC)c1=O | -8.7% | i | 0.38
CCCC(CCC(=O)Nc1ccc(C(=O)OCC)cc1)C(=O)O (stereo unspecified) | -1.6% | i | 0.16
CCCCn1c(NC(=O)CC)c(C#N)c2nc3ccccc3nc21 | -25% | i | -0.15
O=c1cc(CSc2nc3ccccc3[nH]2)c2ccccc2[nH]1 | -0.3% | i | /
Nc1cc(C(=O)OCC(=O)N2CCCC2)ccc1Cl | -4.5% | i | -1.3
CCC(C)(C)n1nnnc1C(c1cc2cccc(C)c2[nH]c1=O)N1CCCC1 (stereo unspecified) | 2.1% | i | 0.28
Cc1cc(C(F)F)n2nc(C(=O)Nc3ccc(S(=O)(=O)NC45CC6CC(CC(C6)C4)C5)cc3)nc2n1 | -5.1% | i | /
CCCCCSc1nc2c(c(=O)[nH]c(=O)n2C)n1CCc1ccccc1 | -3.7% | i | -1.1
COC(=O)COc1nc(C)c2c(c1C#N)CC(C)(C)OC2 | 3.9% | i | -0.09
CCOc1ccc(OCC)c(NC(=O)CC2Oc3ccccc3NC2=O)c1 (stereo unspecified) | 3.3% | i | -0.86
O=C(NCc1ccccc1)C1CCCN(C(=O)Nc2ccccc2)C1 (stereo unspecified) | 4.1% | i | 2.4
Cc1cc(C)c(NC(=O)CSc2nc3ccc(NC(=O)CSc4nnnn4Cc4ccccc4)cc3s2)c(C)c1 | -6.6% | i | /
CCC(=O)Nc1ccc(-c2nnc(-c3ccccc3)o2)cc1 | -1.6% | i | 0.17
COC(=O)c1c(NC(=O)CSc2nc3c(c(=O)n(C)c(=O)n3C)n2C(C)C)sc(C)c1C | 0.4% | i | 1.3
COC(=O)c1ccc(N2CCN(C)CC2)c(NC(=O)c2cc3ccccc3o2)c1 | 0.4% | i | 0.08
OC(COc1c(Br)cc(Br)cc1Br)CN1CCOCC1 (stereo unspecified) | -2.3% | i | 0.59
CCOC(=O)c1c(C)n(C)c2cc(OCCN(CC)CC)ccc12 | 5.8% | i | -0.97
CCCCCOC(=O)Cn1c(=O)c2c(nc(N3CCOCC3)n2C)n(C)c1=O | 0.3% | i | /
COc1ccc(C(C)NC(=O)C2CCCO2)cc1OC (stereo unspecified) | 4.7% | i | 0.02
Cc1ccc(Cl)cc1N1CCN(C(=O)c2ccc(CN3CCOCC3)cc2)CC1 | -4.0% | i | -0.49
COCC(=O)N(Cc1cc2cc(OC)ccc2[nH]c1=O)c1ccccc1 | -0.6% | i | -0.08
COc1cccc(N2CCN(C3CCCC(C)C3)CC2)c1 (stereo unspecified) | -1.8% | i | -1.2
O=C(NCCC1=CCCCC1)C1CCN(C(=O)Nc2ccccc2)CC1 | 1.4% | i | -1.1
COc1ccccc1NC(=O)N1CCCC1C(=O)NCc1ccccc1 (stereo unspecified) | -7.4% | i | 0.54

Next section
SMILES | Hsc70 ATP site | MT1-MMP promoter | WNV protease inh
CCCCN(C)C(=O)CCC(=O)Nc1ccc2nc(N3CCOCC3)cc(C)c2c1 | -4.2% | i | 0.89
CC(C)[C@H](NC(=O)NCc1cccs1)C(=O)O | -10% | i | 0.56
O=C(COc1ccccc1O)c1cccs1 | -2.3% | i | -0.34
COCCCNc1nc2c(c(=O)[nH]c(=O)n2C)n1CCCc1ccccc1 | -2.6% | i | -0.84

A different layout for some results above:
Values in the order: Hsc70 ATP site	MT1-MMP promoter	WNV protease inh
> CCCCN(C)C(=O)CCC(=O)Nc1ccc2nc(N3CCOCC3)cc(C)c2c1
 : -4.2%	i	0.89
> O=C(COc1ccccc1O)c1cccs1
 : -2.3%	i	-0.34
